Source: PubChem
ClpP mod = qHTS Assay for Activators of ClpP | purified B. subtilis ClpP, FRET peptide cleavage, 20 min | 340,000 compounds, 1.9% hits | Potency, µM (highest dose often 57.5 µM), inactives show at the highest dose activity change, negative = active | ATP-dependent Clp protease proteolytic subunit (Bacillus subtilis (strain 168)), P80244; active = well fitted falling curve with a large enough effect; inconclusive = small, poorly fitted or top-dose-only effect; inactive = no such curve, though single readings can be large or run the other way; further: potency means the concentration at half of the fitted maximal effect; the source files actives as falling curves though it sought activators and does not explain the sign; nearly all actives have a fitted effect of over 65% in size; many hits overshoot -100%
Target sequence (P80244 whole entry, looked up): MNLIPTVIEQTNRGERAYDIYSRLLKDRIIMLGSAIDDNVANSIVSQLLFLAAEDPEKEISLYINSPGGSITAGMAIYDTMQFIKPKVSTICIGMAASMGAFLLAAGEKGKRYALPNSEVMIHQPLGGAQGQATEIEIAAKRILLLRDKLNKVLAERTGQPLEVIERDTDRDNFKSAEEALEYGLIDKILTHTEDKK
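Purified B. subtilis ClpP, 10 microg/mL final in Tris/HCl pH8 with KCl, BSA, glycerol and Tween-20, cleaved an Abz/nitrotyrosine-quenched decapeptide. Fluorescence (ex 320, em 430) was read at 0 and 20 min at room temperature. Delta was normalized to 5.8 microM ADEP and DMSO/no-enzyme controls.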
TRPML1 ag = qHTS for Agonists of the Human Mucolipin Transient Receptor Potential 1 (TRPML1) | AID 624414, 2012 | TRPML1-expressing cells, Ca2+ dye fluorescence, FDSS; host cell line not named in the record; reference of the full effect not given here | 410,000 compounds, 0.12% hits | Mucolipin-1 (Homo sapiens), Q9GZU1 | activation, % (test concentration not listed); in the data active = activation above about 50%; inconclusive = about 30% to 50%; inactive = below about 30%; further: 0% is about no effect; the text of the record puts the active cut at 80%
Target sequence (Q9GZU1 whole entry, looked up): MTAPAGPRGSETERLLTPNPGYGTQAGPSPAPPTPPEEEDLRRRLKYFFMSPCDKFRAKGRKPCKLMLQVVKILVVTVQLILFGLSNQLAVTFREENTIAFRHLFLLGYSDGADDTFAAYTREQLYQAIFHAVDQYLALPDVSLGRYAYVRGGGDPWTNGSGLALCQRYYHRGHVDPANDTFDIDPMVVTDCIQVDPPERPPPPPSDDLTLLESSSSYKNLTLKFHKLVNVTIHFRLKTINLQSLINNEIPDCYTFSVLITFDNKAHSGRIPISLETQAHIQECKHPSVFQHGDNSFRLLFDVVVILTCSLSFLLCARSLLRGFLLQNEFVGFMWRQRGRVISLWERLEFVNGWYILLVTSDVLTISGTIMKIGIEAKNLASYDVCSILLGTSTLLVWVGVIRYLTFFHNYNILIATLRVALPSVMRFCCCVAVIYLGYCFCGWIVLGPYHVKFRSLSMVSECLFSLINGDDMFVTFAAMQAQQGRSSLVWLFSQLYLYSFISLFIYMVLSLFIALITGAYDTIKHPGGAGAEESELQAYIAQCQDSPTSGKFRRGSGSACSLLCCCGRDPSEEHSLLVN
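Cells: TRPML1-DL, 1X Tet inducer, ~16 h at 37 degrees C/5% CO2. Dye: ABD Ca8 no-wash + quencher, 45-90 min RT. Read: 10 s baseline, compound add, 110 s agonist phase; 54-4 EC80 (4uM final), 110 s antagonist phase.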
TRPML1 blocker = qHTS for Inhibitors of the Human Mucolipin Transient Receptor Potential 1 (TRPML1). Mucolipin-1 (Homo sapiens), Q9GZU1. TRPML1-inducible cells, Ca2+ dye fluorescence, FDSS; active compounds read low; inhibition of EC80 agonist-evoked calcium signal. activity change, negative = inhibition, % (concentration not given with the values). 390,000 compounds, 0.02% hits; in the data active means activity change below about -50%; inconclusive means about -30% to -50%; inactive means above about -30%;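 further: stimulus is agonist 54-4 at its EC80 concentration; on the % scale 0 is the no-effect control and ±100 the full control effect; the text of the record puts the active cut at -80%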
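TRPML1-DL cells, Tet-induced overnight (~16 h, 37 °C) at 1,500 cells/well, were loaded with Ca8 no-wash dye plus quencher for 45-90 min at room temperature. Compounds were pinned during FDSS kinetic reading; agonist 54-4 at EC80 (4 uM final) then added.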
gsp antag = qHTS for Antagonists of gsp, the Etiologic Mutation Responsible for Fibrous Dysplasia/McCune-Albright Syndrome: qHTS; AID 624288, 2012; 340,000 compounds, 0.4% hits; Potency, µM (doses to about 76.9 µM), for inactives: top-dose activity change, negative = inhibition, actives largely listed as inhibitors; gsp-mutant cells, cAMP HTRF, 30 min; control for the full effect not named in the record; active = falling curve of any shape with a large fitted effect; inconclusive = falling curve, mostly with a smaller effect; inactive = flat or rising curve; cell line not stated here;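 further: intracellular cAMP measured with PDE inhibitor Ro 20-1724 present during compound exposure; potency means the concentration at half of the fitted maximal effect; on the % scale 0 is the no-effect control and ±100 the full control effect; nearly all actives have a fitted effect of over 65% in size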
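Cells, 2000/well, grown 16–24 h in DMEM 10% FBS with 0.5 mg/ml G418, then compounds plus […] (300 uM addition stock), 30 min at 37C. cAMP read by HTRF (cAMP-d2 and anti-cAMP antibody-K in lysis buffer) after 30 min RT.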
gsp agonist = qHTS for Agonist of gsp, the Etiologic Mutation Responsible for Fibrous Dysplasia/McCune-Albright Syndrome: qHTS. gsp mutant cells, cAMP HTRF, 30 min; control for the full effect not named in the record. Potency, µM (top dose mostly 76.9 µM), without a hit: at the top dose activation (cAMP increase), most hits filed as activators. AID 624287, 2012. 340,000 compounds, 0.13% hits; active = well fitted activation curve with a large enough effect; inconclusive = small, poorly fitted or top-dose-only effect, or another doubt; inactive = no such curve, though single readings can be large or run the other way; cell line not stated here;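 further: phosphodiesterase inhibitor Ro 20-1724 added with compounds to block cAMP breakdown; potency means the concentration at half of the fitted maximal effect; nearly all actives have a fitted effect of over 60% in size; about a fifth of the inactives were tested at one dose only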
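Cells stably selected in G418 were plated at 2000/well, grown 16-24 hr, then given compounds in DMSO with the PDE inhibitor […] (300 uM solution added) for 30 min at 37C; cAMP was read by HTRF.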
Menin-MLL FL inh = qHTS Assay for Inhibitors Targeting the Menin-MLL Interaction in MLL Related Leukemias: Competition With Fluorescein Labeled MLL-derived Peptide | Fluorescence polarization, fluorescein-MLL peptide displacement from menin | FP activity change, % at 61.4 µM | 290,000 tested, under 10 active; inconclusive = falling polarisation curve, or a change in total fluorescence; inactive = total fluorescence flat and polarisation flat or rising; no compound was filed as active; the % refers to the polarisation; negative = inhibition;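 further: % of control where 0% means no effect; inhibitors lower the polarisation; unlabelled MLL peptide was the positive control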
* = called active by the depositor; ? = inconclusive; nt = not tested or not shown; & = joins results of further samples; [ ] = another dose, or the depositor's remark.

SMILES	ClpP mod	TRPML1 ag	TRPML1 blocker	gsp antag	gsp agonist	Menin-MLL FL inh
Cc1c(C(=O)N2CCCCCC2)c(S(=O)(=O)NCc2ccccc2)c(C)n1C	-0.1%	0.0	-2.7	nt	nt	nt
Cc1nc(CSc2nnc3scc(-c4ccc(Cl)cc4)n23)cs1	-1.4%	0.2	14.0	-7.4%	7.2%	1.0
CCN(C(=O)COC(=O)Cc1c[nH]c2ccccc12)C1CCS(=O)(=O)C1 (stereo unspecified)	0.6%	-0.1	4.3	8.0%	26.7%	nt
C=CCNc1nc(C(=O)OCC(=O)Nc2ccc(S(N)(=O)=O)cc2)cs1	nt	-0.7	-1.4	0.2%	21.6%[15.4 µM]	nt
CCN1CCN(CCCNC(=O)Cn2nc(C)n3c(cc4c(OC)cccc43)c2=O)CC1	19.0%	-0.2	28.4	nt	nt	nt
CCOC(=O)c1sc2nc3n(c(=O)c2c1C)CCCCC3	-1.9%	-0.7	-11.3	-10.8%	0.0%	-0.8
COc1cc(NC(=O)CSc2nc3nc(C)c(Cc4ccccc4)c(C)n3n2)cc(OC)c1OC	0.9%	-0.5	-15.0	nt	nt	nt
CCc1ccc(NC(=O)C2=CC(c3ccc(OC)c(OC)c3)=NS(=O)(=O)N2C)cc1	-0.3%	0.9	-5.0	-32.1%	-31.0%[inhibitor]	-1.9
CCOC(=O)N1CCC(N2CC34C=CC(O3)C(C(=O)Nc3ccc(C)cc3)C4C2=O)CC1 (stereo unspecified)	2.1%	0.4	-14.4	4.0%	?	-5.9
Cc1ccccc1NC(=O)CSC1=Nc2ccccc2C2=NC(Cc3ccccc3)C(=O)N12 (stereo unspecified)	4.4%	-0.6	11.4	nt	nt	nt
COc1cc(Br)cc(/C=C/c2ccc3cccc(O)c3n2)c1O	-2.4%	0.5	19.4	-1.6%	19.1%	?
CCc1ccc(CNC(=O)C(=O)NCCc2ccc(OC)c(OC)c2)cc1	7.5%	1.5	-5.3	17.4%	1.2%	nt
O=C(COC(=O)C1=COCCO1)Nc1ccc(Oc2ccccc2)cc1	-2.5%	1.9	-11.1	-17.4%	-1.3%	1.3
N#Cc1ccccc1NC(=O)CSc1nc(-c2ccccc2)cc(C(F)(F)F)c1C#N	-9.2%	17.2	1.9	nt	nt	nt
COc1ccc(N(CC(=O)NC2CC3CCC2C3)S(=O)(=O)c2ccccc2)cc1OC (stereo unspecified)	nt	0.4	34.8	9.5%	4.4%	2.7
O=C(NCc1cccs1)c1cccc2c(-c3ccc(F)c(F)c3)coc12	-13.0%	0.5	24.8	nt	nt	nt
Cn1c(-c2ccccc2)c(CCO)c2ccccc21	28.2µM*	5.0	6.6	?	-12.9%	0.5
CCCc1cc(=O)oc2c(C)c(O[C@@H]3O[C@H](CO)[C@@H](O)[C@H](O)[C@H]3O)ccc12	-0.7%	-0.5	9.2	-5.4%	22.9%[15.4 µM]	-2.1
COc1cc(O)c(C(CCN2CCCCC2)c2ccc(N(C)C)cc2)c(OC)c1 (stereo unspecified)	-0.8%	-0.1&-0.2	-13.3&-4.6	-5.3%	nt	0.8&1.2
O=C(NCCCCc1ccccc1)c1ccccc1Cl	nt	-0.9	-15.5	nt	-17.6%[15.4 µM]	1.0
O=C(Cc1ccccc1)NCC(=O)OCc1cccc([N+](=O)[O-])c1	1.6%	-0.2	-6.3	5.6%	7.1%	0.4
CCc1ccc2oc(C(=O)Nc3cccc(C(F)(F)F)c3)cc(=O)c2c1	1.0%	-1.3	6.3	nt	nt	nt
O=C(Nc1ccc(Cl)cc1)Nc1ccccn1	-0.7%	2.1	5.9	-5.4%	-0.9%	2.7
Cc1cc(=O)oc2cc(OS(C)(=O)=O)ccc12	-9.7%	-0.3	4.1	11.7%	19.5%	2.4&3.1
C1CCc2nc3c(nc2C1)CCCC3	-2.4%	0.4	31.0	-1.0%	-9.8%	2.4

The last 4 compounds of the part before open the next one:
SMILES	ClpP mod	TRPML1 ag	TRPML1 blocker	gsp antag	gsp agonist	Menin-MLL FL inh
CCc1ccc2oc(C(=O)Nc3cccc(C(F)(F)F)c3)cc(=O)c2c1	1.0%	-1.3	6.3	nt	nt	nt
O=C(Nc1ccc(Cl)cc1)Nc1ccccn1	-0.7%	2.1	5.9	-5.4%	-0.9%	2.7
Cc1cc(=O)oc2cc(OS(C)(=O)=O)ccc12	-9.7%	-0.3	4.1	11.7%	19.5%	2.4&3.1
C1CCc2nc3c(nc2C1)CCCC3	-2.4%	0.4	31.0	-1.0%	-9.8%	2.4
COC(=O)c1cc(S(=O)(=O)N2CCOCC2)c(N2CCOCC2)cc1N1CCOCC1	-4.9%	-0.3	7.2	0.8%	-3.5%	-1.4
COC(=O)c1cccc(C(=O)Oc2cccc(Br)c2)n1	-1.6%	0.7	7.2	2.1%	-12.1%	2.0
CCCCOCC(O)CCc1n[nH]c(=S)n1-c1ccccc1 (stereo unspecified)	nt	-0.2	-16.1	8.6%	1.8%	3.5
C=CC[C@H]1Cc2c(cccc2[N+](=O)[O-])[C@H](CC=C)N1	nt	1.4	20.5	5.9%	1.6%	-12.1
Cc1cc(C(=O)N/N=C/c2ccc(-c3cccc(Cl)c3)o2)n[nH]1	nt	0.0	8.1	-5.6%	23.5%	8.6
O=C(CSc1nnc(C2CC2)n1-c1ccccc1)N1CCCC1	nt	-0.6	8.9	1.8%	-28.9%	nt
Cc1ccc(S(=O)(=O)N2CCCC2CNC(=O)c2ccc3c(c2)OCO3)cc1 (stereo unspecified)	nt	3.3	33.2	-10.3%	10.0%[15.4 µM]	nt
COc1ccccc1NS(=O)(=O)c1ccc2c(c1)NC(=O)CC(=O)N2	1.0%	-0.8	3.8	15.5%	-8.3%	nt
COCCn1c(SCc2ccc(C(=O)OC)o2)nc2cc(Cl)ccc2c1=O	-5.0%	2.6	44.3	-2.2%	5.6%	-0.1
COc1ccc(CCc2nnc(NS(C)(=O)=O)s2)cc1	nt	0.1	40.6	-11.2%	?	0.1
CC(C)CNC(=O)c1cc(S(=O)(=O)N2CCOCC2)ccc1N1CCCC1	-2.3%	0.2	4.0	7.4%	?	nt
COC(=O)c1sccc1NC(=O)CC1C(=O)NCCN1C(=O)Nc1ccccc1 (stereo unspecified)	0.8%	0.6	1.5	17.5%	-6.3%[15.4 µM]	-2.5
COc1cccc(C(=O)C2CCCN(Cc3cccc(-n4nc(C)cc4C)c3)C2)c1 (stereo unspecified)	-0.7%	1.3	-15.3	-27.5%	-14.7%	4.6
Cc1nn(C)cc1C(=O)/C=C/c1ccc([N+](=O)[O-])cc1	nt	2.2	24.0	-6.5%	8.0%	-3.5
COc1ccc(C(=O)N2CCN(C(=O)Cc3ccccc3)CC2)cc1OC	-0.9%	0.4	-3.3	4.8%	8.8%	2.7
CCCCOc1ccc(S(=O)(=O)NC(=O)C2(C)CCN2C(=O)c2cccc(F)c2)cc1 (stereo unspecified)	-1.0%	-0.8	-4.0	nt	nt	nt
O=c1nc(-c2ccccc2)nc(-c2ccccc2)[nH]1	nt	1.3	-2.2	-36.0%	-13.1%[15.4 µM]	0.9
NS(=O)(=O)c1ccc(CCNC(=O)c2ccc3nc(CCc4ccccc4)oc3c2)cc1	-0.2%	1.6	5.7	nt	nt	nt
CC(=O)c1sc(NC(=O)c2cccs2)nc1C	-2.0%	-0.6	3.5	0.7%	12.2%	-2.0
Cc1ccc2[nH]c(-c3cccc(F)c3)cc(=O)c2c1	4.1%	-0.7	-5.1	20.1%	-6.9%	3.9[94.6 µM]
COc1cccc(/C=c2\sc3nc(-c4cccs4)nn3c2=O)c1OC	-2.1%	-0.3	-17.1	-0.5%	-7.9%	3.0
O=C(COc1ccccc1CNC[C@H]1O[C@@H](n2ccc(=O)[nH]c2=O)[C@H](O)[C@@H]1O)N1CCCCC1	0.5%	-0.6	-15.0	nt	nt	nt
CCN(c1ccccc1C)S(=O)(=O)c1cc2c3c(c1)CCC(=O)N3CCC2	-0.9%	-1.1	9.5	-11.1%	?	nt
CC(=O)N1c2ccc(S(=O)(=O)N3CCC(C(=O)N4CCN(c5cc(Cl)ccc5C)CC4)CC3)cc2CC1C (stereo unspecified)	-1.8%	-1.0	7.6	?	?	nt
CCn1c(SCC(=O)Nc2cc(C)on2)nnc1-c1cccs1	1.4%	-0.2	32.7	11.5%	-6.2%	3.8

Next results:
SMILES	ClpP mod	TRPML1 ag	TRPML1 blocker	gsp antag	gsp agonist	Menin-MLL FL inh
CN1C(=O)c2ccccc2Sc2ccc(NC(=O)Cc3ccc(Cl)cc3)cc21	-8.2%	1.5	7.5	nt	nt	nt
C[C@H](CO)N1C[C@H](C)[C@@H](CN(C)C(=O)NC2CCCCC2)OCc2cnnn2CCCC1=O	2.0%	0.0	1.5	nt	-46.5%[inhibitor]	nt
CCOC(=O)c1sc(C)c2c1NC(c1ccc(N(C)C)cc1)NC2=O (stereo unspecified)	19.0%	0.0	14.9	-0.4%	?	13.2
COc1ccc(S(=O)(=O)Cc2ccc(C(=O)NCc3ccco3)o2)cc1	0.8%	-0.1	-0.9	2.6%	-10.0%	-0.6
O=C(O)C1CSC(c2ccc3c(c2)OCO3)N1 (stereo unspecified)	nt	-0.9	4.7	0.0%	-0.3%	0.0
Cc1cc(C)n(-c2nc3c(c(=O)[nH]c(=O)n3C)n2Cc2ccc(F)cc2)n1	-2.4%	1.4	12.3	5.7%	27.7%	5.9
C[C@H]1CC[C@@]2(O[C@H](CCO)C[C@H](O)[C@H]2O)O1	-2.1%	-0.6	6.5	7.3%	?	nt
COc1cccc(NC(=O)CN(C)CC(=O)Nc2ccccc2-c2ccccc2)c1	nt	0.9	23.2	-6.4%	-1.0%	4.3
CC(C)n1nnnc1C(c1ccc(F)cc1)N1CCN(C2CCCC2)CC1 (stereo unspecified)	-7.5%	-0.5	9.4	-6.0%	2.7%	0.7
CCN(Cc1ccccc1)S(=O)(=O)c1cc(C(=O)NCC2CCCCC2)ccc1OC	1.3%	0.4	3.0	-9.7%	-6.9%[15.4 µM]	3.2
O=[N+]([O-])c1cccnc1Oc1ccc(F)cc1	nt	-0.1	-18.8	3.1%	-18.2%	-0.6
